# PINK1 modulator: modulators of PINK1 expression. PINK1 immunofluorescence, high-content cytometry, 24 h. Potency, µM (titrated, usually from 76.6 µM), without a hit: at the highest dose activation (PINK1 increase), most hits filed as activators. 410,000 compounds, 0.2% hits. AID 624263; active = well fitted activation curve with a large enough effect; inconclusive = small, poorly fitted or top-dose-only effect; inactive = flat fitted curve, though single readings scatter; cell line not stated here;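 further: potency means the concentration at half of the fitted maximal effect; % of control where 0% means no effect; nearly all actives have a fitted effect of over 65% in size; a mitochondrial uncoupler was the plate control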
#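 Fluorescence from anti-PINK1 antibody, together with nuclear and cell stains, was scanned on a laser-scanning cytometer. Before staining, stable-line cells were incubated 24 hours with compounds at 5 concentrations; primary antibody 12 h at 10 degrees C.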
# TRPML1 ag: human mucolipin-1 channel agonism | 410,000 compounds, 0.12% hits | Q9GZU1 | TRPML1-expressing cells, Ca2+ dye fluorescence, FDSS; host cell line not named in the record; reference of the full effect not given here | activation, % (concentration not given with the values); in the data active = activation above about 50%; inconclusive = about 30% to 50%; inactive = below about 30%; further: 0% is about no effect; the text of the record puts the active cut at 80%
# Target sequence (Q9GZU1 whole entry, looked up): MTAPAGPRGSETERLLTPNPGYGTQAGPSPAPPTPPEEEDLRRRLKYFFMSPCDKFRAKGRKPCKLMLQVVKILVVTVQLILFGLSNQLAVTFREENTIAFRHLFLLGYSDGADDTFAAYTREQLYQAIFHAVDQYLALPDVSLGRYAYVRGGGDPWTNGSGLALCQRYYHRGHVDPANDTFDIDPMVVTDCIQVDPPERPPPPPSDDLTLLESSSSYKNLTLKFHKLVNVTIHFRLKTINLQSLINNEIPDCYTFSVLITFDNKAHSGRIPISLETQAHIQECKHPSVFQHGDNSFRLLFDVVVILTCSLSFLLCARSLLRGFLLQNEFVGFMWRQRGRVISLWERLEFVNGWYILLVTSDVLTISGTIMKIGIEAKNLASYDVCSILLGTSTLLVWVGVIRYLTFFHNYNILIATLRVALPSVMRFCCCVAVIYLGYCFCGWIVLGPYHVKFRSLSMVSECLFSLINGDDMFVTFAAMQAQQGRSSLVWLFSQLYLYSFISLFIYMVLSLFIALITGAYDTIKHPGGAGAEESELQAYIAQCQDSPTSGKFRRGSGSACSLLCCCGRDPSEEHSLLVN
#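 Calcium fluorescence on an FDSS kinetic reader gave the read-out. Tet-induced TRPML1-DL cells were plated overnight, dye-loaded (Ca8 with quencher, 45-90 min, room temperature, dark), then read 110 s after compound addition, and again 110 s after 4uM final 54-4 (EC80).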
# TRPML1 inh: human mucolipin-1 channel inhibition | Q9GZU1 | TRPML1-inducible cells, Ca2+ dye fluorescence, FDSS; stronger effect = lower value; inhibition of EC80 agonist-evoked calcium signal | activity change, negative = inhibition, % (concentration not given with the values) | 390,000 compounds, 0.02% hits | AID 624415; in the data active means activity change below about -50%; inconclusive means about -30% to -50%; inactive means above about -30%;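 further: stimulus is agonist 54-4 at its EC80 concentration; on the % scale 0 is the no-effect control and ±100 the full control effect; the text of the record puts the active cut at -80%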
#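 Tet-induced TRPML1-DL cells loaded with Ca8 no-wash calcium dye were read kinetically on FDSS. Compound addition was followed by EC80 agonist 54-4 (4 uM final); inhibition was read over 110 s.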
# Six1-Eya2 blk: Six1/Eya2 interaction inhibition | Q15475+O00167 | AlphaScreen GST-Six1/His-Eya2 binding, biochemical; stronger effect = lower value; control for the full effect not named in the record | activity change, % (concentration not given with the values) | 360,000 compounds, 0.56% hits | AID 651725; in the data active = activity change below about -65%; inconclusive = about -30% to -65%; inactive = above about -30%; further: on the % scale 0 is the no-effect control and ±100 the full control effect
#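 AlphaScreen with GST-Six1 and His-Eya2 (5X mix: 250 nM and 500 nM), glutathione donor and nickel acceptor beads; buffer 50 mM Tris pH 8.0, 300 mM NaCl, 1 mM TCEP; 1 h at 37 C in the dark.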
# D2 agonist: activates the human D2 dopamine receptor; activation, % (test concentration not listed); DiscoveRx PathHunter D2 beta-arrestin, luminescence, 90 min; 100% = 57 uM dopamine signal; P14416; 360,000 compounds, 0.084% hits; in the data active = activation above about 40%; inconclusive = about 15% to 40%; inactive = below about 15%; further: compound concentration not given in the record; the text of the record calls up to 30% inactive
# Target sequence (P14416 whole entry, looked up): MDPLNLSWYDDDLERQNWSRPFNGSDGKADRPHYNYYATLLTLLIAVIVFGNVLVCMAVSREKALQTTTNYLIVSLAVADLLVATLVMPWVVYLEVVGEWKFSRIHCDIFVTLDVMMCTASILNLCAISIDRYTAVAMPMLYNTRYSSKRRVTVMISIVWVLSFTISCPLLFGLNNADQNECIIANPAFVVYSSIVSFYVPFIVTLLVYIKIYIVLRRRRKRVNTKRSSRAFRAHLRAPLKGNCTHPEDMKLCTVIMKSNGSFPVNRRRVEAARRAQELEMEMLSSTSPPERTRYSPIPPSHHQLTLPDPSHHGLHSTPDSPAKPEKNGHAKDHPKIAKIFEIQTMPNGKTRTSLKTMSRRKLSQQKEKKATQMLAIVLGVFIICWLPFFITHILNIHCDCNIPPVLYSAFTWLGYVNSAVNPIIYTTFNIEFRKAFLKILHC
#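 Agonist mode: compounds alone added to overnight-plated D2 PathHunter cells for 90 min at 37 C, with 57 uM final dopamine (EC100) defining full response. Beta-arrestin recruitment detected by chemiluminescent reagent, read after 1 h at ambient temperature.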
# CtBP-E1A blk: CtBP/E1A binding inhibition. AlphaScreen GST-E1A/His-CtBP binding, 1536-well; stronger effect = lower value; control for the full effect not named in the record. activity change, % (no concentration beside the values). 340,000 compounds, 0.49% hits; in the data active means activity change below about -65%; inconclusive means about -30% to -65%; inactive means above about -30%; further: on the % scale 0 is the no-effect control and ±100 the full control effect
#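 In 5 uL wells, 23 nL compound meets equimolar GST-E1A and His-CtBP (5X stock 125 nM each) for 2 h, 37 °C. Beads (5X, 50 ug/mL) then 1 h, 37 °C, dark.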
# Active calls of the source: *; u = inconclusive; x = not tested or not shown; & = joins results of further samples; [ ] = dose if it differs, or a comment. Rows are unselected; about 1% have a hit in one of these screens.
SMILES,PINK1 modulator,TRPML1 ag,TRPML1 inh,Six1-Eya2 blk,D2 agonist,CtBP-E1A blk
CCNC(=O)C(=O)NCC(c1ccc2c(c1)OCO2)N1CCOCC1 (configuration not stated),-1.2%,-0.5,-14.2,1.8,-0.8,-12.1
CCOC(=O)c1c(C)[nH]c(C(=O)COC(=O)/C=C/c2ccc3c(c2)OCO3)c1C,-1.3%,-0.1,-5.3,-1.1,-6.8,-21.5
COC(=O)c1c(NC(=O)CS(=O)(=O)c2ccccc2)sc(C)c1C,-2.7%,0.8,-0.5,-16.2,1.6,0.3
CC(C)c1ccc(-c2nc3c([nH]2)c(=O)n(C)c(=O)n3C)cc1,16.1%,-0.5,52.0,0.0,2.2,6.1
Cc1c(NS(=O)(=O)c2cc(C(=O)NCc3cccnc3)cc(Cl)c2Cl)c(=O)n(-c2ccccc2)n1C,-5.6%,0.8,-27.6,-3.4,-2.0,5.4
NC(COCc1ccccc1)c1csc(Nc2nccc(C(F)(F)F)n2)n1 (configuration not stated),6.3%,-0.8,x,-9.9,-4.0,-24.3
CCOC(=O)C1C(=O)C(=O)N(C(C)C)C1C(=O)OCC (configuration not stated),-1.3%,-0.3,-11.8,3.2,0.6,6.2
O=C(CSc1nc2ccccc2c(=O)n1CCCO)NCc1ccccc1,-3.8%[38.3 µM],0.5,-3.4,-0.9,-3.7,2.8
COc1ccc2c(c1)c(CC(=O)NCc1cc([N+](=O)[O-])ccc1O)c(C)n2C(=O)c1ccc(Cl)cc1,u,1.0,-7.3,-21.4,0.3,-1.3
Cc1ccc(S(=O)(=O)N(CCC(=O)NCC(c2ccccc2)N(C)C)c2ccccc2)cc1 (configuration not stated),-0.2%,0.9,-1.2,-1.9,0.1,2.5
O=C(COC(=O)c1ccc(S(=O)(=O)N2CCOCC2)cc1)Nc1nc(-c2ccccc2)cs1,2.8%,-0.4,9.2,-2.4,-1.8,3.2
COc1ccc(NC(=O)N(C)C[C@H]2Oc3c(NC(=O)NC4CCCCC4)cccc3C(=O)N([C@H](C)CO)C[C@@H]2C)cc1,-0.2%,-0.5,-10.5,-2.8,2.5,2.6
Cc1ccc(CN2[C@@H](CC3CCCCC3)COCCS2(=O)=O)cc1,10.7%,-1.3&0.2,-12.0,2.2,0.4,2.5
NC(=O)C1(N2CCCCC2)CCN(CC(=O)Nc2ccccc2Sc2ccccc2)CC1,x,0.9,31.1,-7.0,-1.2,4.0
CCC1(C)Cc2ccccc2-c2nc(SCC(N)=O)[nH]c(=O)c21 (configuration not stated),1.8%,0.5,-16.6,16.3,-4.5,5.6
COc1ccc(C(=O)NNC2=NCCCCC2)cc1,2.6%,-0.4,1.7,6.9,-1.9,3.2
O=C(NCc1ccccn1)Nc1ccc(F)c(Cl)c1,-0.3%,-0.4,-10.6,6.6,0.5,1.7
CCc1ccc(NC(=O)c2ccc(F)c(S(=O)(=O)NC3CCCCCC3)c2)cc1,u,0.3,43.6,x,x,x
COc1ccc(/C=C/C(=O)Nc2nc(C)c(C(=O)N(C)C)s2)cc1OC,2.7%,-0.8,2.7,-2.5,-0.2,2.0
CCCC(=O)Nc1ccc(NC(=O)c2ccco2)c(OC)c1,3.55µM*,-0.4,4.7,-5.1,-2.6,-11.2
O=C(Nc1ccc(F)cc1)C1CCN(C(=O)c2ccc(F)cc2)CC1,-1.5%,-0.1,13.3,-0.2,3.1,0.8
CCN(CC)C(=O)Cn1cc(SCC(=O)NC)c2ccccc21,2.8%,-0.4,7.2,-0.2,-0.1,-6.2
Cc1cn(C)c(CC(=O)N2CCN(c3ccc(F)cc3)CC2)c1C(=O)O,0.5%,0.9,6.8,x,x,x
CC1CCN(S(=O)(=O)CCNC(=O)c2ccccc2)CC1,-1.3%,0.1,0.7,9.5,-0.3,6.9
COc1ccc(NC(=O)c2ccncc2)cc1S(=O)(=O)N1CCCCC1,1.7%,0.6,-24.2,-10.4,-2.5,-1.0

# Later entries.
SMILES,PINK1 modulator,TRPML1 ag,TRPML1 inh,Six1-Eya2 blk,D2 agonist,CtBP-E1A blk
CCOc1ccc(NC(=O)CN(C)C(=O)c2sc3ccccc3c2Cl)cc1OCC,-2.5%,1.4,4.0,-9.7,-3.0,-4.8
O=C(Nc1ccn(Cc2c(F)c(F)cc(F)c2F)n1)c1cccc(Cn2cc([N+](=O)[O-])cn2)c1,2.8%[38.3 µM],1.1,42.4,-3.0,-1.8,3.1
O=C(Nc1ccc2c(c1)OCO2)c1ccc(S(=O)(=O)N2CCCC2)cc1,0.8%,-0.6,4.4,-19.3,-1.8,-19.0
O=C(O)c1cc(-c2ccccc2Cl)n(-c2ccc(F)cc2)n1,0.4%,3.0,-7.6,7.6,0.8,x
COc1cccc(N(CC(=O)Nc2cccc(N(C)S(C)(=O)=O)c2)S(C)(=O)=O)c1,-2.0%[38.3 µM],2.8,0.8,-3.6,-0.3,17.7
O=C(CCCC(=O)OCC(Cl)=C(Cl)Cl)Nc1ccccc1,0.2%,-0.8,-8.7,-15.5,0.4,-4.7
CC(=O)N(CCC(c1ccco1)C(C)C)Cc1ccc(Cl)cc1 (configuration not stated),0.8%,2.8,8.0,9.5,5.8,2.3
Cc1ccc(OCC(=O)N2N=C(C(F)(F)F)CC2(O)C(C)(C)C)cc1C (configuration not stated),4.9%,-0.2,0.3,2.9,1.7,7.4
Cc1cc(C)c(C)c(S(=O)(=O)NCCN2CCOCC2)c1C,-0.1%,0.2,-3.7,0.1,5.9,2.6
CC(=O)NS(=O)(=O)c1ccc(NC(=O)CSc2ccc(C)cc2)cc1,0.2%,0.8,50.6,2.3,-1.5,-27.7
O=C(Nc1nnc(S(=O)(=O)N2CCN(c3ccc(F)cc3)CC2)s1)c1ccccc1,2.5%,-0.3,-2.6,2.1,2.4,8.5
COc1ccccc1CN1C(=O)CN(C2CCCC2)C(=O)C1c1ccc(F)cc1 (configuration not stated),-6.0%[38.3 µM],0.8,-8.1,-6.1,-3.8,-15.9
CCN(CCCNC(=O)C1CCN(S(=O)(=O)CC)CC1)c1cccc(C)c1,10.8%[38.3 µM],-0.2,-16.6,-1.0,-0.8,1.4
COc1cc(OC)cc(C(=O)NC(=S)Nc2nnn(C)n2)c1,0.0%,-0.4,6.4,-12.6,-17.6,1.5
CCCC(=O)c1cc(-c2nc3ccccc3n2C)n(C)c1,-2.0%,2.6,-5.7,-5.2,1.2,-0.7
CCn1nnc(NC(=O)C(C)(c2ccccc2)c2ccccc2)n1,1.0%,-1.7,-4.9,-1.1,-1.7,5.4
Cc1c2cnn(CC(=O)N3CCOCC3)c(=O)c2c(C)n1Cc1ccccc1F,0.8%,0.1,8.4,-3.9,-4.3,1.6
CN(CC1CCOCC1)C(=O)CC1C(=O)NCCN1CC1CCCCC1 (configuration not stated),0.3%,0.2,-8.1,14.4,-5.0,1.3
CC(C)Cn1nc(NS(=O)(=O)c2ccccc2)c2cc3ccccc3nc21,x,0.2,-14.6,3.7,-1.0,-4.0
COc1ccc(S(=O)(=O)N2CCCC(C(=O)Nc3ccc(OC)c(OC)c3)C2)cc1 (configuration not stated),-2.4%,5.2,0.9,-6.3,0.0,-6.1
CCOc1ccc(CCNC(=O)CCC(=O)N2CCSc3ccccc32)cc1OCC,-2.2%,2.7,11.0,-6.8,6.0,-2.0
COc1ccc(-c2nc(Cn3c(SCc4cccc(C(F)(F)F)c4)nc4cccnc43)c(C)o2)cc1OC,1.5%,0.7,-5.3,x,x,x
COc1ccc(CNC(=O)Cn2nc(C)n3cccc3c2=O)cc1,0.7%&0.1%,-0.5&1.0,2.9&-9.7,1.6,-5.3,-9.4
Cc1[nH]c2ccccc2c1CCN(Cc1cccs1)C(=S)NC(C)(C)C,0.9%,-0.3,4.1,-13.7,2.6,-19.9
O=S(=O)(c1ccc(F)cc1)N1CCC(Oc2cccc(C(F)(F)F)c2)CC1,3.3%,4.8,19.0,x,x,x

# (cont.)
SMILES,PINK1 modulator,TRPML1 ag,TRPML1 inh,Six1-Eya2 blk,D2 agonist,CtBP-E1A blk
O=C(Nc1ccc2c(c1)CCC2)C1COc2ccccc2O1 (configuration not stated),0.0%[38.3 µM],-0.8,-0.2,8.5,-1.5,7.7
CCN1C(=O)c2ccccc2Sc2ccc(NC(=O)c3ccc(C)c(F)c3)cc21,3.3%,1.3,50.3,x,x,x
CCC1=NC(c2ccc(OC)cc2OC)N(O)C1(C)C (configuration not stated),2.4%[38.3 µM],-0.1,-2.9,-1.7,-3.8,4.2
O=C(Nc1nc2cc3c(cc2s1)OCO3)c1cccc(N2C(=O)CCC2=O)c1,13.4%,-0.1,-1.7,-0.2,0.2,0.4
Cn1c(=O)c2c(nc(SCCNS(=O)(=O)c3ccccc3)n2C)n(C)c1=O,-1.9%,0.2,8.7,-29.8,-1.5,u
O=C(CSc1nnc(-c2cccc(S(=O)(=O)N3CCCC3)c2)n1-c1ccccc1)Nc1cccc(C(=O)O)c1,-0.5%,0.3,26.5,-11.8,6.2,-16.8
Cn1cc(-c2csc(C(O)c3ccccc3)n2)cn1 (configuration not stated),2.9%,-0.8,x,10.7,-4.6,-1.6
CC(=O)NC1C(=O)N(CCN2CCOCC2)c2ccc(Br)cc21 (configuration not stated),2.9%,1.1,-7.5,-7.0,-1.7,x
CCOc1ccc(OCC(=O)NCc2n[nH]c(=O)c3ccccc23)cc1,3.2%,2.3,0.1,-0.8,-2.6,7.4
COc1ccccc1NC(=O)Cn1c(C)cc(C)c(C#N)c1=O,-0.2%,-0.6,1.4,x,x,x
CCN(c1ccc(NC(=O)c2cccc(S(=O)(=O)N3CCN(C)CC3)c2)cc1)C(C)C,-2.2%,0.0,-11.8,-9.3,-4.9,5.2
CCC1CCCCN1C(=O)Cn1nc([N+](=O)[O-])c(Cl)c1C (configuration not stated),-1.1%,-0.1,-15.6,8.8,-4.0,-8.1
COCCn1c(SCC(=O)N2CCc3ccccc3C2)nc2cc(Cl)ccc2c1=O,-1.0%,0.0,3.8,5.4,-1.3,8.1
Cc1ccc(-c2c[nH]c(=S)n2-c2ccccc2F)cc1,1.0%,0.7,-1.4,-20.1,0.7,-26.2
Cc1ccc(NC(=O)COC(=O)c2ccc(-n3cccn3)cc2)cc1C,-0.1%,0.7,1.7,0.9,-2.6,1.1
CCN(CC)S(=O)(=O)c1ccc(C(=O)NCC(=O)NC2CC2)cc1,1.7%,0.3,22.6,1.9,-4.7,0.2
O=C(Nc1c(C(=O)N2CCN(c3ccccc3)CC2)oc2ccccc12)c1ccc(Br)o1,0.0%,0.5,-11.7,x,x,x

# Screening data as filed in PubChem BioAssay.
